Bioassay records (PubChem BioAssay)
CapD inh: CapD enzyme inhibition; purified CapD enzyme, fluorescence intensity read-out; stronger effect = lower value; some hits fall short of the stated cut; actives 0.23% (n = 140,000); z-score (concentration not given with the values); AID 492967;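 active means z-score under -4 in either of two replicates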;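 further: stock transfer was 100 nL into about 40 µL; score is relative to mean and spread of the plate; one replicate is shown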
AID504770: growth inhibitors of E. coli YBA685 in a screen for V. cholerae RctB (chromosome II replication) inhibitors. E. coli YBA685 rctB-dependent plasmid, OD600 growth, 3 h; stronger effect = lower value. z-score (test concentration not listed). actives 0.27% (n = 130,000). AID 504770;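 active means z-score under -2 on both plates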;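 further: wells of about 30 µL received 100 nL stock; score is relative to mean and SD of the test wells; the first replicate is given; strong numbers were not always called active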
Active calls of the source: *; . = not tested or not shown. Not all compounds are listed; rates above refer to the full screens.

Sample of the layout (2 entries):
Second line of a record: CapD inh	AID504770
c1ccc(-c2cn3nc(C4CCCCC4)sc3n2)cc1
    -0.375	-1.1
O=C(COc1ccccc1)Oc1cc(-c2ccccc2)c2oc(=O)sc2c1
    0.91	1.75

Main list, from the first entry:
Second line of a record: CapD inh	AID504770
c1ccc(-c2cn3nc(C4CCCCC4)sc3n2)cc1
    -0.375	-1.1
O=C(COc1ccccc1)Oc1cc(-c2ccccc2)c2oc(=O)sc2c1
    0.91	1.75
Cc1ccc(CNC(=O)c2ccc(N3CC(C)Sc4ccccc43)s2)o1 (stereo not drawn)
    23.3	0.15
CC(=O)N(CN1C(=O)C2CCC(C)CC2C1=O)c1ccc(C)c(Cl)c1 (stereo not drawn)
    -1.12	.
Cc1nnc(C)n1N(C)C
    -0.83	1.35
O=C1NC(=O)/C(=C\C=C\c2ccccc2)S1
    0.62	0.5
O=C(CSc1nnc(-c2ccc(Cl)cc2)o1)NC1CCSc2ccccc21 (stereo not drawn)
    .	-0.25
NC1=NC(=O)/C(=C\c2ccccc2OCc2ccccc2F)S1
    0.8	0.85
CC(C)(C)C(=O)CC(C)(O)c1ccc(Cl)cc1 (stereo not drawn)
    -0.14	-0.3
Cc1ccc(S(=O)(=O)n2cc(/C=C(\C#N)C(N)=O)c3ccccc32)cc1
    .	-0.3
c1ccc(-c2nn(-c3ccccc3)[n+](-c3nnn[n-]3)n2)cc1
    -0.24	0.3
CC(Sc1nnc2ccccn12)C(N)=O (stereo not drawn)
    .	-0.85
O=C(O)/C=C/c1cccnc1
    -0.69	0.05
CCCCC(=O)Nc1ccc(NCc2ccc(C)s2)cc1
    -1.49	0.25
N#CC1=C([S-])N[C@@](O)(c2ccccc2)[C@H]([n+]2ccccc2)[C@H]1c1ccccc1F
    -0.265	.

The list continues:
Second line of a record: CapD inh	AID504770
Cc1ccc(CNC(=O)c2ccccc2N)cc1
    104	1.2
O=C(CSc1nc2ccccc2o1)n1c2c(c3ccccc31)CCCC2
    0.82	.
CC(=C\c1ccccc1)/C=C1/SC(=S)N(CCC(=O)NCCCN2CCOCC2)C1=O
    -0.64	.
Cc1cc(N)n(CCC#N)n1
    0.165	-0.5
CSC1=NSC2=NC(=O)/C(=C\c3ccc(-c4ccccc4)o3)C(=N)N12
    -0.655	1.4
CC(=O)N(c1ccc2oc(=O)sc2c1)S(=O)(=O)c1ccccc1
    -0.675	0.45
CC(C(=O)NC1CCCCCC1)n1c(=O)c2cccn2c2cccnc21 (stereo not drawn)
    15.5	0.8
CC1=Nc2ccccc2N=C(NC(=O)C(C)N2C(=O)c3ccccc3C2=O)C1c1ccccc1 (stereo not drawn)
    0.115	0.65
CN(C)S(=O)(=O)c1cccc2c1N(C(=O)c1cccc(C(F)(F)F)c1)CC2
    0.15	.
COc1ccc(CN=C(C)c2c(O)c3ccccc3n(C)c2=O)cc1
    1.74	0.6
CCCn1c(=O)cc(N)n(-c2ccc(Cl)cc2)c1=O
    0.085	-0.6
CCOC(=O)c1c(NC(=O)COc2ccc(Cl)cc2C)sc(C(=O)Nc2ccccc2F)c1C
    -1.04	.
O=C1c2ccccc2C(=O)C1c1ccc(Cl)cc1
    -0.4	.
COc1ccc(C(C)NC=O)cc1OC (stereo not drawn)
    -0.735	-0.3
O=C(CSc1nc2ccccc2[nH]1)N1CCCc2ccccc21
    -0.125	0.85

More records:
Second line of a record: CapD inh	AID504770
CCCCNC(=O)NS(=O)(=O)c1ccccc1C(F)(F)F
    -0.02	.
CCOC(=O)N1CCN(C(=O)c2ccc(N3CC4CC(C3)c3cccc(=O)n3C4)c(NC(=O)c3ccc(OC)cc3)c2)CC1 (stereo not drawn)
    -0.335	.
N#CC(C#N)=C1C=C2C=C(N3CCCCC3)CCC2CC1 (stereo not drawn)
    .	-0.8
O=C(NCCN1CCOCC1)Nc1c[nH]c2ccccc2c1=O
    .	-0.45
O=C(NCCCN1CCCCC1)c1cc(-c2ccncc2)nc2ccccc12
    0.14	0.05
COc1ccc(C(=O)O)cc1S(=O)(=O)N(C)CCc1ccccn1
    .	0.8
O=C(Nc1ccccc1)Oc1ccccc1N1CCOCC1
    -0.91	-1.05
COC(=O)c1cc(OC)c(OC)c(OC)c1N
    27.8	.
C/C(=N\N=C(/C)c1cccs1)c1cccs1
    -1.64	-0.65
CCC(C)NC(=O)c1nn(Cc2ccccc2)c(=O)c2ccccc12 (stereo not drawn)
    .	-3.6
CCOC(=O)c1cc2cccc(NS(=O)(=O)c3ccc(OC(F)(F)F)cc3)c2[nH]1
    -0.08	.
COCC(C)NC(=O)c1noc2c1CCc1cc(OC)ccc1-2 (stereo not drawn)
    0.685	-0.75
Cc1ccc(N2C(=O)CS(=O)(=O)C2c2ccc(Br)cc2)cc1F (stereo not drawn)
    -0.9	.
CC1(C)C(c2ccc(F)cc2)=[N+]([O-])C(C)(C)C(c2ccc(F)cc2)=[N+]1[O-]
    .	-1.15
CCC(C(=O)N1CCN(c2cc(C)ccc2C)CC1)n1sc2ccccc2c1=O (stereo not drawn)
    -0.515	-1.7

Some of the entries above in a different format.
SMILES	CapD inh	AID504770
Cc1ccc(S(=O)(=O)n2cc(/C=C(\C#N)C(N)=O)c3ccccc32)cc1	.	-0.3
c1ccc(-c2nn(-c3ccccc3)[n+](-c3nnn[n-]3)n2)cc1	-0.24	0.3
CC(Sc1nnc2ccccn12)C(N)=O (stereo not drawn)	.	-0.85
O=C(O)/C=C/c1cccnc1	-0.69	0.05
CCCCC(=O)Nc1ccc(NCc2ccc(C)s2)cc1	-1.49	0.25

Next compounds follow:
Second line of a record: CapD inh	AID504770
COC(=O)c1cc(OC)c(OC)cc1NS(=O)(=O)c1ccc(OC)cc1
    -0.64	.
CC1(C)C(=O)C2(C(=O)N3CCOCC3)CCC1C2 (stereo not drawn)
    -0.42	-0.8
COc1ccc2c(c1OC)C(=O)N(c1ccc(F)cc1)C2
    15.1	-0.3
COC(=O)CCn1c(C)cc(C(=O)CSc2cccc[n+]2[O-])c1C
    .	-1.05
COc1cc2c(NC(C)=O)c(CN(C)C)oc2c(Cl)c1Cl
    -0.105	-0.7
O=C(c1ccc(Nc2nc(-c3ccccc3)c3cc(Br)ccc3n2)cc1)N1CCOCC1
    -0.335	-0.5
Cc1ccc2cc(CN(CCN3CCCC3)C(=O)NC3CCCCC3)c(=O)[nH]c2c1C
    .	-0.75
Oc1cccc(-c2nc(=S)c3c([nH]2)Oc2ccccc2C3)c1
    -1.09	0.7
COc1ccc(C2/C(=C(\O)c3ccccc3)C(=O)C(=O)N2c2ccc(C)cc2)cc1OC (stereo not drawn)
    -0.615	.
O=C(CN1CCOCC1)N/N=C/c1ccccc1
    .	0.95
C=CCc1ccccc1OCC(O)CN1CCN(Cc2ccc3c(c2)OCO3)CC1 (stereo not drawn)
    -0.435	0.65
Cc1c(C(=O)NCc2ccco2)sc2ncnc(N3CCc4ccccc4C3)c12
    4.55	.
Cc1noc(C)c1C(=O)c1c(C)[nH]n(-c2ccccc2)c1=O
    0.32	0.1
C=CCNS(=O)(=O)c1ccccc1
    .	-1.25
CC1(C)CC(=O)C=C(NCCc2ccccc2)C1
    .	1.6

Further records follow.
Second line of a record: CapD inh	AID504770
COCc1ccc(C(=O)NCc2ccncc2)cc1
    .	0.6
Cn1c(CCC(=O)O)nc2ccccc2c1=O
    .	1.85
COc1cccc(C2(O)CC(C(F)(F)F)=NN2C(=O)c2ccccn2)c1 (stereo not drawn)
    -0.545	.
COC(=O)c1sccc1-c1ccc(COC(=O)c2ccc(OC)cc2)o1
    37.9	.
O=C(CCN1C(=O)c2ccccc2C1=O)N1CCN(Cc2ccc(Cl)cc2Cl)CC1
    -0.19	.
CC(C)N(C(=O)NC(=O)c1ccc(F)cc1F)C(C)C
    0.255	-0.75
CN1CCc2nc(NC(=O)c3ccc(S(=O)(=O)N(C)C)cc3)sc2C1
    .	0.45
COc1ccc(-c2csc(NC(=O)c3ccc(C#N)cc3)n2)cc1
    -0.425	0.2
O=C(N/N=C/c1c[nH]c2cc(OCc3ccccc3)ccc12)c1csc(CS(=O)(=O)Cc2ccco2)n1
    1.51	.
COc1ccc(N2C(=O)c3c(c4ccccc4n3C)C2c2cccc(OC)c2)cc1 (stereo not drawn)
    -0.12	3.4
COC(=O)C1C(=O)NC(SCC(=O)Nc2ccccc2C)=C(C#N)C1c1ccccc1F (stereo not drawn)
    -0.47	.
CCOC(=O)c1ccc2c(c1)C1C(Cl)C(Sc3ccccc3[N+](=O)[O-])CC1C(c1ccc(Cl)cc1)N2 (stereo not drawn)
    -0.365	.
CC(=O)Nc1nc(-c2cccs2)cs1
    -1.36	2.25
CC1Cc2cc(S(N)(=O)=O)ccc2N1Cc1cc(Cl)cc2c1OCOC2 (stereo not drawn)
    .	-0.45
CCOC(=O)c1c(CNc2ccccc2C(N)=O)n(C)c2cc(Br)c(OC(C)=O)cc12
    99.3	.

Going on with the list.
Second line of a record: CapD inh	AID504770
COc1ccc(Br)cc1CN1CCN(C(=O)c2cccc(OC)c2OC)CC1
    .	-0.3
O=C(CNc1ccc2c(c1)OCCCO2)c1cc2cc(Cl)ccc2o1
    0.43	1.5
COC(=O)c1ccccc1NC(=O)CSc1nnc(SCC(=O)Nc2ccccc2C(=O)OC)s1
    -0.755	.
C=CCOC(=O)C1=C(C)NC(SCC(=O)Nc2cccc(C(C)=O)c2)=C(C#N)C1c1cccs1 (stereo not drawn)
    4.13	.
O=C(Nc1nc2ccccc2s1)C1CC1
    -0.035	-0.8
O=C(COC(=O)c1sc2ccccc2c1Cl)NCc1ccccc1
    0.32	1.35
CC(C)Sc1n[nH]c(=O)n1C(C)C
    -0.86	-1.15
Cc1noc(C)c1COc1ccc(C(=O)NCc2cccnc2)cc1
    .	-0.15
Cc1[nH]n(-c2ccccc2)c(=O)c1C(c1ccc(OC(=O)c2ccc(Cl)cc2)cc1)c1c(C)[nH]n(-c2ccccc2)c1=O
    -0.275	.
C=CCc1ccccc1OCC(O)CN1CCNCC1 (stereo not drawn)
    .	-0.65
CCOC(=O)c1sc(NC(=O)Cn2nc(C(F)(F)F)cc2C)c(C(=O)OCC)c1C
    -0.25	.
Cc1nc(-c2ccccn2)[nH]c(=O)c1CC1CC1
    0.3	.
O=C(Nc1cccc(C(F)(F)F)c1)c1ccc2ncccc2c1
    0.015	-0.15
COc1ccc2c(O)c(-c3ccccc3)c(=O)[nH]c2c1
    0.185	.
COc1cccc(-c2c3c([nH]c(=O)c2C#N)CCc2cc(OC)ccc2-3)c1
    0.07	-0.4

Remaining list, next part.
Second line of a record: CapD inh	AID504770
O=S(=O)(c1ccc(-c2ccccc2)cc1)N1CCCC1
    0.655	-0.3
CC(NC1CCCc2ccccc21)C(=O)NCc1ccc2c(c1)OCO2 (stereo not drawn)
    .	-0.05
CCOc1ccc(-c2nnc(OC)c3ccccc23)cc1
    0.255	0.25
CCOC(=O)/C(=C\c1ccsc1)C1=Nn2c(nnc2-c2ccc(OC)cc2)SC1
    .	0.55
O=C(O)c1ccccc1C(=O)NCC(O)c1ccccc1 (stereo not drawn)
    -0.55	-1.25
CCC(=O)N/C=C/n1cnc2cc(C(F)(F)F)ccc21
    0.13	1.95
CC(C)c1ccc(C=Nc2ccc(C(=O)O)cc2)cc1
    -0.165	.
COc1ccc(-c2nnc3ccc4ccccc4n23)c(OC)c1
    -0.32	.
C=CCn1c(COc2ccc(OC)cc2)n[nH]c1=S
    .	-0.25
Cc1cc(C)nc(Nc2ccc(C(F)(F)F)cc2)n1
    -0.46	.
CCC(=O)Nc1nc2nc(C(C)(C)C)cc(=O)n2[nH]1
    -0.445	.
CCCn1c(NC(=O)CCC2CCCC2)nc2ccccc21
    .	0.9
Cc1[nH]n(-c2ccc([N+](=O)[O-])cc2)c(=O)c1C=NCCN1CCN(C(=O)C(C)C)CC1
    -0.485	.
O=S(=O)(Cc1ccccc1)N1CCn2c(nc3ccccc32)C1
    0.335	-0.75
O=C(O)C1CCCN(c2c(-c3ccccc3)c3cc(Cl)ccc3[nH]c2=O)C1 (stereo not drawn)
    -0.785	0.25

(list continues)
Second line of a record: CapD inh	AID504770
CCCn1cnc2sc(C(=O)NCCN3CCOCC3)c(C)c2c1=O
    0.145	.
CC(C)(C)n1ncc2c(=O)n(CC(=O)OCc3ccccc3)cnc21
    0.095	-0.9
CCOC(=O)c1cc2c(c(CSc3ccc(Cl)cc3)c1)OCOC2
    -0.22	-0.5
O=C1CSC(=O)N1c1ccccc1
    .	-0.05
COc1ccc(-c2nc(SC(CC(=O)NCc3ccco3)c3cc(OC)c(OC)c(OC)c3)n[nH]2)cc1 (stereo not drawn)
    .	2.05
COc1ccc2cc3cc(C(=O)NCCN4CCN(c5ccccc5F)CC4)sc3nc2c1
    61.7	-0.5
O=C(Cc1cccs1)NCCOc1ccccc1F
    .	0.4
O=C(CCC1CCCC1)N1CCN(Cc2c[nH]c3ccccc23)CC1
    -0.18	0.05
CC(=NCc1ccccc1)c1c(C)cc(C)cc1O
    0.165	-0.05
C#Cc1cccc(NCN2C(=O)c3ccccc3C2=O)c1
    -0.11	.
CCOC(=O)c1c(NC(=O)C(C)Sc2nnc(CNC(=O)c3cc(OC)cc(OC)c3)n2C)sc2c1CCCC2 (stereo not drawn)
    -0.43	.
CC(=O)N1c2ccc(S(=O)(=O)N(C)CC(=O)Nc3cccc(C)c3)cc2CC1C (stereo not drawn)
    0.045	-0.6
CCOC(=O)c1ccc(NC(=O)CCS(=O)(=O)c2ccc(OC)cc2)cc1
    -0.09	0.95
O=C(CCN1C(=O)c2ccccc2C1=O)N1CCN(c2ccccn2)CC1
    -0.13	.
CC(=O)Oc1ccc2oc(-c3ccccc3)c(C(N)=O)c2c1
    8.78	-0.75
OC(CSc1ccccc1Cl)CN1CCN(c2ccc(F)cc2)CC1 (stereo not drawn)
    -0.38	.
